WNV protease inh: inhibitors of West Nile virus NS2B-NS3 protease. P06935. WNV NS2B-NS3 protease, fluorogenic substrate Ex360/Em465; active compounds read low. z-score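 (tested at a level between 10 and 100 µM)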. 65,000 tested, 0.18% active. AID 577;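 active = z-score at -3 or under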;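 note: score is relative to mean and spread of the compound wells of a plate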
Target sequence (P06935 1371-1501 limits assumed): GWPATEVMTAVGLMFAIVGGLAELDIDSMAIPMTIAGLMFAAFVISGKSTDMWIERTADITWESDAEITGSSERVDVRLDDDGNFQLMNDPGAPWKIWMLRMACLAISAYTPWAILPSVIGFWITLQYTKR
Target sequence (P06935 1502-1679 limits assumed): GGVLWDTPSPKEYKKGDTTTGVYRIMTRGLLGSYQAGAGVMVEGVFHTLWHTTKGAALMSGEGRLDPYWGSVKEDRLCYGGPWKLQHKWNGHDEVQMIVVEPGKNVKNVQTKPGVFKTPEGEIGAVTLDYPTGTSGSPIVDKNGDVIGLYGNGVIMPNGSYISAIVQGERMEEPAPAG
MT1-MMP reporter: MT1-MMP gene expression reporter suppression – cell-based, luciferase reporter, luminescence (AID 618); MT1-MMP promoter luciferase reporter cells, luminescence; calls from a first round at 10 µM; hits with a dose series show EC50 in µM; 87,000 tested, 0.62% active;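 active = over half of the reporter light lost at 10 µM or EC50 under 50 µM; inactive = the rest and hits that failed the dose series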;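 note: actives suppress MT1-MMP promoter-driven transcription so potencies describe inhibitors; HT1080 fibrosarcoma cells; overnight exposure; toxic or luciferase-blocking compounds were not removed from the actives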
Hsc70 ATP site: small molecules displacing fluorescent ligand from Hsc70 – biochemical, fluorescence polarization, primary screen (AID 568); one-dose displacement, % at 20 µM; IC50 in µM for titrated hits; 83,000 tested, under 10 active; Hsc70 fluorescence polarization, probe displacement; higher % means a stronger effect; strong numbers were not always called active;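 active = displacement above 50% without optical interference and an IC50 on retest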;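 note: ATPase domain with a fluorescein-tagged ATP probe; 0% = vehicle and 100% = excess ADP; read after one hour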
* hit, by the source's call; i = inactive; / = no result given.

SMILES	WNV protease inh	MT1-MMP reporter	Hsc70 ATP site
CCn1ncc(Br)c1C(=O)Nc1ccc(C(=O)OC(C)C)cc1	/	i	-2.3%
COc1ccc(N2CCN(C3CC(=O)N(C)C3=O)CC2)cc1 (centres undefined)	-0.07	i	-1.0%
Cc1cc(C)cc(NC(=O)CCN2CC(C)OC(C)C2)c1 (centres undefined)	-0.39	i	6.7%
CCOC(=O)CN1CC23C=CC(O2)C(C(=O)Nc2ccc(OC)cc2OC)C3C1=O (centres undefined)	-0.32	i	0.7%
CCOc1cccc(OCCOCCN(C)Cc2ccccc2)c1	0.98	i	-2.0%
COc1ccc2cc(CCNC(=O)c3c(-c4ccccc4Cl)noc3C)c(=O)[nH]c2c1	-0.44	i	-0.1%
CN1Cc2c(N3CCOCC3)nc(SCc3ccccc3)c(C#N)c2CC1(C)C	-0.15	i	-2.1%
Cc1ccc2c(C(=O)CN3CCCCC3CCO)c(C)[nH]c2c1 (centres undefined)	0.52	i	12%
COC(=O)c1cccc(NC(=O)c2cccs2)c1C	/	i	0.7%
CCCNc1ncnc2nc[nH]c12	-2	i	3.5%
CN(C)CCCNC(=O)CCc1nc2ccccc2c(=O)[nH]1	/	i	-0.3%
C/C(NC1CCCCC1)=C(/C#N)C(=O)NCCN1CCOCC1	-0.44	i	-4.8%
CCc1ccc2[nH]c(=O)c(CN(CCCN3CCOCC3)C(=O)Nc3ccc(F)cc3)cc2c1	1.1	i	-0.1%
Cc1ccc(N(CC(=O)NC2CCCCCC2)S(=O)(=O)c2c(C)nn(C)c2C)cc1	-0.96	i	-3.7%
O=C(Nc1nc2c(s1)CCCC2)C1CCCN1C(=O)c1cccs1 (centres undefined)	-0.14	i	-3.5%
O=C1CC(N2CCN(C(c3ccccc3)c3ccccc3)CC2)C(=O)N1 (centres undefined)	-0.62	i	-1.6%
N#Cc1ccc(C(c2nnnn2CCc2ccccc2)N2CCCCCC2)cc1 (centres undefined)	-0.61	i	2.9%
Cn1ccnc1SCC(=O)Nc1ccc2c(c1)COC2=O	1.4	i	7.5%
CCN(CC)c1ccc2cc(C(=O)Nc3cccnc3N3CCOCC3)c(=O)oc2c1	-1.1	i	-18%
Cc1ccc(C(=O)NCc2ccc(Cl)c(Cl)c2)o1	-0.59	i	0.7%
CCCCOC(=O)Nc1nc(CC(=O)OCC)cs1	0.83	i	-1.6%
Cc1ccc(S(=O)(=O)NC(CC(=O)NCc2ccco2)c2ccco2)cc1 (centres undefined)	0.03	i	0.5%
O=C(NCc1ccccc1)NC1(C(=O)N2CCN(c3ncccn3)CC2)CCCCC1	0.4	i	-3.6%
CSc1nc2c(c(=O)[nH]1)C(c1cccs1)C1=C(CCCC1=O)N2 (centres undefined)	2.3	i	1.3%
CCOC(=O)c1ccc(C(=O)OCC)nc1	/	i	-2.4%
SMILES	WNV protease inh	MT1-MMP reporter	Hsc70 ATP site
C=CCc1c(O)nc(SCC(=O)c2ccccc2)[nH]c1=O	/	i	5.5%
CC1CCN(C(=O)CN(C2CCCCC2)S(C)(=O)=O)CC1	-0.66	i	-1.0%
Cc1ccc(CSc2nncn2-c2ccccn2)cc1	/	i	-4.4%
O=C(NCc1ccccn1)c1ccc(N2CCCC2=O)cc1	-1.1	i	2.2%
Cc1ccc(C)c(N2CCN(C(=O)CC3Sc4ccccc4NC3=O)CC2)c1 (centres undefined)	0.22	i	-7.6%
Cc1csc(SCC(=O)c2ccc(S(=O)(=O)N3CCOCC3)cc2)n1	-0.78	i	1.6%
CCC(C)(C)NC(=O)C(c1ccc(C)o1)N(C(=O)c1csnn1)c1cccc(F)c1 (centres undefined)	/	i	-0.6%
O=C(c1cncc(Br)c1)N1CCc2ccccc2C1	/	i	3.6%
CCn1nc(CC(=O)Nc2nnc(CC(=O)N3CCOCC3)s2)c2ccccc2c1=O	/	i	0.7%
COc1ccc(N(CC(=O)NCc2ccc3c(c2)OCO3)S(=O)(=O)c2c(C)nn(C)c2C)cc1	0.46	i	0.9%
Cc1cc(C)n(/N=C\c2c(O)ccc3ccccc23)c(=O)c1C(N)=O	/	i	-1.4%
COC(=O)/C(=C\Nc1ccc(Cl)c2ccccc12)c1ncc(C(F)(F)F)cc1Cl	/	i	-6.0%
COc1ccc(-c2cc(-c3ccccc3O)[nH]n2)cc1	/	i	-1.2%
CCOC(=O)C1=C(C)Nc2ccccc2N=C1NC(=O)c1cccc(S(=O)(=O)N(C)C)c1	-0.19	i	-0.9%
CCN(CC(=O)Nc1ccccc1C(=O)OC)S(=O)(=O)c1ccc(OC)cc1	-1.1	i	1.8%
Oc1ccccc1-c1nc(NCc2ccco2)c2ccccc2n1	-0.33	i	-10%
O=C(NCCSc1ccccc1)c1ccco1	-0.53	i	1.2%
Cc1nc2c(o1)CCc1ccccc1C2N1CCN(C)CC1 (centres undefined)	0.3	i	1.2%
O=C(CN1C(=O)NC(Cc2ccccc2)C1=O)Nc1ccccc1 (centres undefined)	-0.06	i	3.7%
CCCCC(=O)Nc1ccc(N2CCN(S(C)(=O)=O)CC2)cc1	0.15	i	-0.4%
COc1cc(OC)cc(C(=O)Nc2ccc(-n3cnnn3)c(C)c2)c1	2.4	i	-4.8%
COCCCN1C(=O)c2ccc(C(=O)Nc3cccc(OC)c3)cc2C1=O	/	i	3.9%
Cn1c(C(=O)NCCCN2CCN(c3ccccc3F)CC2)cc2c(=O)[nH]c3ccccc3c21	-0.87	i	-0.3%
CCOC(=O)c1[nH]c2cc3c(cc2c1NC(=O)CN1CCC2(CC1)OCCO2)OCO3	0.43	i	-2.6%
CCN(CC)S(=O)(=O)c1cccc(-c2nnc(SCC(=O)NC)n2CCc2ccccc2)c1	-0.21	i	-1.3%
SMILES	WNV protease inh	MT1-MMP reporter	Hsc70 ATP site
COC(=O)Cc1c(C)nc2nc(NCc3cccc([N+](=O)[O-])c3)[nH]n2c1=O	/	i	4.0%
CC(NC(=O)c1cccc(F)c1)C(c1cccs1)N1CCN(C)CC1 (centres undefined)	-0.54	i	0.6%
COCC(=O)N(Cc1cc2ccc(C)cc2[nH]c1=O)c1ccc(OC)cc1	1.1	i	-3.9%
CCCc1cc(=O)[nH]c(SCC(=O)N(C)C2CCS(=O)(=O)C2)n1 (centres undefined)	-0.11	i	-6.2%
CNc1nnc(-c2ccncc2)s1	1	i	-3.2%
CCCNC(=O)c1c(N)n(-c2cc(OC)cc(OC)c2)c2nc3ccccc3nc12	-0.31	i	3.7%
O=C1c2cccc(O)c2C(=O)c2c(O)cccc21	/	i	12%
O=C(CSc1nnc(Cc2ccccc2)o1)NC1CCCCC1	0.21	i	2.0%
COC(=O)c1cnn2c3c(c(C)nc12)CCCC3	0.59	i	1.8%
Clc1ccc2c(c1)C1=C(C(c3ccncc3)O2)C(c2ccc(Br)cc2)n2ncnc2N1 (centres undefined)	/	i	1.7%
COc1ccc(OC)c2[nH]c(=O)c(CCNS(=O)(=O)c3ccc(Cl)cc3)cc12	0.45	i	-0.8%
CCOC(=O)c1ccc(NC(=O)NC2CC3CCC(C2)N3Cc2nnnn2Cc2ccco2)cc1 (centres undefined)	/	i	1.7%
O=C(COC(=O)C1CC2C=CC1C2)Nc1ccc2c(c1)OC(F)(F)O2 (centres undefined)	-0.68	i	1.8%
CCCOc1ccccc1Nc1nnc(C)c(=O)[nH]1	-0.61	i	-3.4%
COc1ccc(CCNc2oc(Cc3cccc4ccccc34)nc2C#N)cc1OC	1.2	i	-7.0%
COc1ccccc1-c1nnc(NC(=O)c2ccc(S(=O)(=O)N(C)Cc3ccccc3)cc2)o1	0.79	i	-0.3%
Cc1ccc(O)c(-c2cc(C(F)(F)C(F)F)nc(-c3ccccc3)n2)c1	-0.58	i	-0.3%
O=C(Nc1ccc(Cl)cn1)c1cccc(F)c1	1.5	i	0.6%
Cc1ccc(-c2nnnn2CS(=O)(=O)c2ccccc2)cc1	0.41	i	-2.6%
CCc1nnc(NC(=O)Cn2c(=O)oc3ccccc32)s1	/	i	-2.2%
CC(C)(C)NC(=O)CSc1nnc(-c2ccncc2)n1Cc1ccccc1	-0.02	i	-7.4%
Cc1cccc(-n2c(=O)[nH]c3c(C(N)=O)nc(-c4ccccc4Cl)nc32)c1	-0.97	i	1.2%
CC(C)(C)C(=O)Nc1nnc(SCc2ccc(F)cc2)s1	/	i	-1.2%
Cc1ccc(OCCn2cc(Br)c(=O)[nH]c2=O)cc1	/	i	-3.8%
Cc1cccc(NC(=O)Cc2ccc(F)cc2)c1	/	i	-1.3%

Single records (already shown):
O=C(NCc1ccccn1)c1ccc(N2CCCC2=O)cc1 reads WNV protease inh = -1.1; MT1-MMP reporter = i; Hsc70 ATP site = 2.2%
CCN(CC(=O)Nc1ccccc1C(=O)OC)S(=O)(=O)c1ccc(OC)cc1 reads WNV protease inh = -1.1; MT1-MMP reporter = i; Hsc70 ATP site = 1.8%
CCOC(=O)c1[nH]c2cc3c(cc2c1NC(=O)CN1CCC2(CC1)OCCO2)OCO3 reads WNV protease inh = 0.43; MT1-MMP reporter = i; Hsc70 ATP site = -2.6%

Next structures
SMILES	WNV protease inh	MT1-MMP reporter	Hsc70 ATP site
Cc1nnc(NC(=O)CSc2ccccn2)s1	-1.3	i	0.6%
CCOC(=O)C(C)Sc1nc2c([nH]c3ccccc32)c(=O)n1C (centres undefined)	/	i	-11%
CCOc1ccccc1NC(=O)CSc1nnc(CNC(=O)COc2ccc(Cl)cc2)o1	-0.66	i	1.2%
Cc1ccc(-c2nc(CS(=O)(=O)CC(=O)NC3CCCCC3C)c(C)o2)cc1 (centres undefined)	-0.37	i	-1.9%
C=CCn1c(=O)c(C(=O)NCCN(CC)CC)c(O)c2ccccc21	-0.53	i	1.6%
CC(=O)OCCCCON1C(=O)c2ccccc2C1=O	1	i	-4.7%
O=C(O)C1CCCNC1 (centres undefined)	-1.1	i	1.0%
CC(=O)C1=C(O)C(=O)N(Cc2ccco2)C1c1ccc(F)cc1 (centres undefined)	-0.27	i	-1.8%
Cn1c(=O)c2ncn(CC(=O)Nc3ccc4c5c(cccc35)CC4)c2n(C)c1=O	-0.1	i	-7.8%
COC(=O)C1=C(CN2CCCc3ccccc32)NC(=O)NC1c1ccc(F)cc1 (centres undefined)	0.82	i	6.2%
O=C(Nc1cnc2ccccc2c1)N1CCCCC1	-1.1	i	3.3%
CCOc1ccc(-c2cc(CCCC(=O)NCCc3ccc(OC)c(OC)c3OC)no2)cc1	0.1	i	-8.7%
Cc1nc(SCC(=O)Nc2c(C)n(C)n(-c3ccccc3)c2=O)n[nH]1	0.82	i	-3.3%
CCCCNC(=O)C1CCN(Cc2ccc(OCc3ccccc3)cc2)CC1	/	i	1.3%
Cc1ccc(NS(C)(=O)=O)c(C(=O)c2ccccc2)c1	/	i	-0.9%
COC(=O)CSc1nnc([C@H](Cc2ccccc2)NC(=O)OC(C)(C)C)o1	-0.2	i	1.1%
CCn1nnnc1SCC(=O)N1c2ccccc2Sc2ccccc21	/	i	1.6%
CCCCC(=O)NC(NC(=S)N1CCOCC1)C(Cl)(Cl)Cl (centres undefined)	/	i	0.4%
COc1ccc(NC(=O)C2CCCN(c3c4c(nc5ncnn35)CCC4)C2)cc1OC (centres undefined)	-0.17	i	1.3%
O=S(=O)(/N=C/c1ccccc1O)c1cccs1	-0.77	i	-2.2%
CC(C)(C)c1ccc(-c2noc(CCC(=O)NCC3CCCO3)n2)cc1 (centres undefined)	/	i	-0.4%
COc1ccc(S(=O)(=O)NCc2ccco2)cc1-c1nnc2c3ccccc3c(C)nn12	-0.83	i	-3.5%
Cc1cc(C)n2nc(S(=O)(=O)NCCc3ccccc3)nc2n1	0.15	i	-1.8%
Cc1ccc(NC(=O)N(C2=NCC(C)S2)c2ccccc2)cc1 (centres undefined)	-0.06	i	-0.6%
COc1ccc(S(=O)(=O)Nc2ccc3c(c2)OCCO3)cc1Cl	-0.42	i	-3.7%
SMILES	WNV protease inh	MT1-MMP reporter	Hsc70 ATP site
COc1cc2[nH]c(=S)n(NC(=O)c3ccccc3)c(=O)c2cc1OC	/	i	2.2%
CCc1c(C#N)c(N)nc(SCC(=O)OCc2ccccc2)c1C#N	-1.1	i	6.1%
Cc1cc2nnc(SC(C)C)n2c2ccccc12	/	i	-4.9%
O=C(CCS(=O)NCc1ccccc1)NCc1ccccc1 (centres undefined)	-0.12	i	-8.6%
Cc1ccccc1NC(=O)CSc1nc(Nc2ccccc2)nc(N2CCOCC2)n1	-0.45	i	3.8%
CCCN1C2=C(C(=O)CCC2)C(c2ccc(F)cc2)C2=C1c1ccccc1C2=O (centres undefined)	/	i	1.3%
CCCC(=O)Nc1cc2c(cc1C(=O)c1ccccc1)OCCO2	-0.04	i	-3.1%
CCSc1nc2ccccc2n1Cc1nc(N)nc(N(C)C)n1	0.99	i	3.6%
CCn1c(CCNC(=O)c2cccs2)nnc1SCC(=O)NC1CCCCC1	0.44	i	-2.3%
Cc1cc(C)n2nc[n+](C)c2n1	0.24	i	-8.1%
COc1ccc(OC(=O)c2cn(C)nc2C(F)(F)F)cc1	/	i	0.6%

An excerpt of these results, bar-delimited.
Structure | WNV protease inh | MT1-MMP reporter | Hsc70 ATP site
Cc1ccc(N(CC(=O)NC2CCCCCC2)S(=O)(=O)c2c(C)nn(C)c2C)cc1 | -0.96 | i | -3.7%
Cc1ccc(CSc2nncn2-c2ccccn2)cc1 | / | i | -4.4%
CCOC(=O)c1ccc(NC(=O)NC2CC3CCC(C2)N3Cc2nnnn2Cc2ccco2)cc1 (centres undefined) | / | i | 1.7%
CCn1ncc(Br)c1C(=O)Nc1ccc(C(=O)OC(C)C)cc1 | / | i | -2.3%
COC(=O)c1cccc(NC(=O)c2cccs2)c1C | / | i | 0.7%

Screening results deposited in PubChem BioAssay by several laboratories.
